# nsP2pro inh: Primary qHTS for inhibitors of NSP2Pro chikungunya virus (CHIKV). 31,000 compounds, 1.1% hits. Potency, µM (top dose mostly 24.9 µM), for inactives: at the top dose activity change, negative = inhibition, usual class: inhibitors. AID 1964107, 2024. FRET peptide cleavage, nsP2pro, fluorescence 1 h. Polyprotein P1234 (Chikungunya virus (strain S27-African prototype)), Q8JUX6; active means well fitted inhibition curve with a large enough effect; inconclusive means small, poorly fitted or top-dose-only effect; inactive means no such curve, though single readings can be large or run the other way; also: nearly all actives have a fitted effect of over 60% in size; a reference inhibitor and vehicle were the controls
# Target sequence (Q8JUX6 whole entry, looked up): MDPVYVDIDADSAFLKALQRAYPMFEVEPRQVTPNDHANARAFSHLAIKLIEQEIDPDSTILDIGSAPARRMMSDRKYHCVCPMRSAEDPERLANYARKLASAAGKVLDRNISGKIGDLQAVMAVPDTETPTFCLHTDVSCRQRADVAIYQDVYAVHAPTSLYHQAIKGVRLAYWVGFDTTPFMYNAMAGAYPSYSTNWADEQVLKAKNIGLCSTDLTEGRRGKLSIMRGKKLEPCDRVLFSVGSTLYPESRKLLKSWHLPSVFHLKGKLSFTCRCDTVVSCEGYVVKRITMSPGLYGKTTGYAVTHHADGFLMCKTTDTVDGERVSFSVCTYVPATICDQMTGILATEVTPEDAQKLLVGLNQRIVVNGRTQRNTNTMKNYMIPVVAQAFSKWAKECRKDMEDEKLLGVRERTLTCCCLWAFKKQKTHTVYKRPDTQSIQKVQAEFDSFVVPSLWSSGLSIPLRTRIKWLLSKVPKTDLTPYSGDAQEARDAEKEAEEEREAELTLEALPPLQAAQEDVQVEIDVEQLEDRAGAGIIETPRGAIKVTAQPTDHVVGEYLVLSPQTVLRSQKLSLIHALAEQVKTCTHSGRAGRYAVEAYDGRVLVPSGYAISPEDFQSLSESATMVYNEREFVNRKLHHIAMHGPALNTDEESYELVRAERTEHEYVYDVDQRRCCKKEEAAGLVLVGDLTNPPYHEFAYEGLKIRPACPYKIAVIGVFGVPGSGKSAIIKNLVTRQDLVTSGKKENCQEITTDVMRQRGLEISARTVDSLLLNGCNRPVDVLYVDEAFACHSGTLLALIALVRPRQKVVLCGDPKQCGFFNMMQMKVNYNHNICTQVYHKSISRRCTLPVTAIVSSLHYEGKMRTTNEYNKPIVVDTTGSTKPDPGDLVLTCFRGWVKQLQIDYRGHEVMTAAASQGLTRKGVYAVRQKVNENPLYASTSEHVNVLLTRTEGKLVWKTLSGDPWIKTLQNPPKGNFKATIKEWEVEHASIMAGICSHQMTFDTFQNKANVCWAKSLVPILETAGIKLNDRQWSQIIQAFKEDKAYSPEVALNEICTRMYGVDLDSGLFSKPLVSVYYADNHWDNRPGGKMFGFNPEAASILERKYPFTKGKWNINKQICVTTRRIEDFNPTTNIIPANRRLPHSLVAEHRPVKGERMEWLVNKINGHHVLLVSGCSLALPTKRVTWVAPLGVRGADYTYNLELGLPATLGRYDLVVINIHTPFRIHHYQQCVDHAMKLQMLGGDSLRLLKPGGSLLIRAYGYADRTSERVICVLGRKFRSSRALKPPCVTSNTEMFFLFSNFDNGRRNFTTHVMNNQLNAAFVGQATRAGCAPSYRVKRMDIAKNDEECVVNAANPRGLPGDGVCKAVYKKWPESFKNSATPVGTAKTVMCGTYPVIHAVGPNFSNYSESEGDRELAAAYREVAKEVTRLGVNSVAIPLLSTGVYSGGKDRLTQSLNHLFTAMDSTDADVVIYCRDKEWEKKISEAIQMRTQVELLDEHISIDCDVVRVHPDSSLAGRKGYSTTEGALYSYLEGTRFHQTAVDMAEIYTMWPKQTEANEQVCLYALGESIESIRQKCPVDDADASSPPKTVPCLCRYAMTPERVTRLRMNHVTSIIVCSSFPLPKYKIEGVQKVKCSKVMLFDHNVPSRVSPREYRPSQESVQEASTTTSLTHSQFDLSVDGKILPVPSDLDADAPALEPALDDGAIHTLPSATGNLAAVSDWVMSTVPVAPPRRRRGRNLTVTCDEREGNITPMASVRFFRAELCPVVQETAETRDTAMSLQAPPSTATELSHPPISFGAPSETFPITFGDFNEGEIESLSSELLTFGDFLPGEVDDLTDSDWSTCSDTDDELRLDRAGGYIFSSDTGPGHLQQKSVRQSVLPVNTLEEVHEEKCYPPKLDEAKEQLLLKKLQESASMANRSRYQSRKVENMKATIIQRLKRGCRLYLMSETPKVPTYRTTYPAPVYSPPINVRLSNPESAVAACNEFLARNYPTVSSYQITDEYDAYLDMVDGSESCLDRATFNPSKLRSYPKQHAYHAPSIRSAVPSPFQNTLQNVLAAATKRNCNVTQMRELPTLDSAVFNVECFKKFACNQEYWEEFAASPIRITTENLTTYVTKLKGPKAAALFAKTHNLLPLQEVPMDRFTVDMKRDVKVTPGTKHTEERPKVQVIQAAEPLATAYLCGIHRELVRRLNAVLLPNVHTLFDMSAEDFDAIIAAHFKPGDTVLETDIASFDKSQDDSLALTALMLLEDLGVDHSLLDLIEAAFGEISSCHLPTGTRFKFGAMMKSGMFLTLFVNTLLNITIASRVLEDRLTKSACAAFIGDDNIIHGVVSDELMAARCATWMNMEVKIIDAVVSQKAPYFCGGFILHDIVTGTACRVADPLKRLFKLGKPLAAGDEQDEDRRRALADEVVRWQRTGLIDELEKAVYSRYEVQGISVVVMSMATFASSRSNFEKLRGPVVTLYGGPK
# An asterisk follows results filed as active; i = inactive; ? = inconclusive; & = joins results of further samples; [ ] = remark or other dose. % is scaled to controls: 0 for no effect and ±100 for the full control effect; potency is read from the fitted curve at half-maximal effect.
SMILES,nsP2pro inh
COc1nc2ccccc2cc1CN1CCC2(C1)CN(C)C(=O)O2 (centres undefined),-14.0%
CC1=Nc2cc(C(=O)NCCc3ccc(Cl)cc3)ccc2Sc2c(C)ccc(C)c21,-3.7%
Brc1ccccc1-c1nc(NCc2ccc(-c3cccnc3)cc2)c2ccccc2n1,i
COc1ccc(CCNC(=O)Cn2nc(C)c3c(C)n(-c4ccc(C)cc4)nc3c2=O)c(OC)c1,?
CCCNC(=O)N1CCCCCC1CN1CCCC1 (centres undefined),-14.7%
CCOc1ccc(NC(=O)/C(C#N)=C\c2ccc(-c3ccc(Cl)cc3)o2)cc1,-20.4%
CC1(C)CC[C@]2(C(=O)O[C@@H]3O[C@H](CO[C@@H]4O[C@H](CO)[C@@H](O)[C@H](O)[C@H]4O[C@@H]4O[C@H](CO)[C@@H](O)[C@H](O)[C@H]4O)[C@@H](O)[C@H](O[C@@H]4O[C@H](CO)[C@@H](O)[C@H](O)[C@H]4O)[C@H]3O)CC[C@]3(C)C(=CCC4[C@@]5(C)CC[C@@H](O)[C@@](C)(C(=O)O[C@@H]6O[C@H](CO)[C@@H](O)[C@H](O)[C@H]6O)C5CC[C@]43C)[C@@H]2C1 (some centres undefined),-10.3%[5.1 µM]
c1ccc(CN2CCc3[nH]cnc3C2c2ccc(-c3ccccn3)cc2)nc1 (centres undefined),i
Cc1cccc(C2N=C(Nc3nc4ccccc4o3)NC3=C2C(=O)CCC3)c1 (centres undefined),1.1%
Cc1cc(C2=NOC(c3cc(Cl)cc(Cl)c3)(C(F)(F)F)C2)ccc1C(=O)NCC(=O)NCC(F)(F)F (centres undefined),6.1%
COc1nc(N)nc2c1ncn2[C@@H]1O[C@H](CO)[C@@H](O)[C@@H]1O,-2.7%
COc1ccccc1N1CCN(C(=O)c2oc3ccccc3c2NC(=O)C(C)Oc2ccccc2)CC1 (centres undefined),-19.8%
Nc1ccccc1NC(=O)c1ccc(CNC(=O)OCc2cccnc2)cc1,-10.4%&-6.7%&-4.2%
Cc1ccc(NC(=O)C(Cc2ccccc2)n2cccc2)c(C)c1 (centres undefined),9.4%
C=C1[C@H]2CC[C@H](C(=O)O)[C@@]23CC[C@H](C3)C1(C)C,5.8%
Cc1cc(C)c2c(C)c(C(=O)N3CCC(c4nc5ccccc5s4)CC3)oc2c1,-20.5%
CN(Cc1cc(C2CC2)n[nH]1)c1cc(C2CC(N)C2)nc(N)n1 (centres undefined),i
Oc1ccc(NCc2ccccc2OCc2ccccc2)cc1,3.01µM*
O=C(CCN1CCCCO1)N1CCOC(CCCc2ccccc2)C1 (centres undefined),-1.8%
N#Cc1c(-c2csc(-c3no[n+]([O-])c3C#N)c2)no[n+]1[O-],?
Cc1cc2c(s1)c1cnn(Cc3cccc([N+](=O)[O-])c3)c(=O)c1n2C,?
CN1CCCC2(CC1)CCN(C(=O)c1ccc(C#CC(C)(C)O)cc1)CC2,-2.2%
O=C(CCn1c(=O)c2ccccc2n(Cc2cccc(Cl)c2)c1=O)NCCc1ccccc1,47.9%[activator]
Cc1ccc(CNC(=O)c2ccc3c(c2)nc2n3CCCC2)cc1,5.5%
O=C(Nc1cccc2c1cnn2-c1ccc(F)cc1)c1ccccn1,2.4%
COc1cc(CC(=O)O)ccc1O,-21.8%
CCCCN(C)CCNC(=O)CN1C(=O)CSc2ccc(S(=O)(=O)N3CCOCC3)cc21,-12.3%
c1cncc(CN2CCOC[C@H]2c2ncc(-c3cccnc3)[nH]2)c1,-10.1%[39.2 µM]
CCCOC(=O)c1c(NC(=O)C(C)Sc2nc(-c3ccccc3)cc(C(F)(F)F)n2)sc(C(=O)N(C)C)c1C (centres undefined),-18.8%
COc1ccc2c(OC)c3ccoc3nc2c1OC,?
CC(C)(C)c1ccc(C(=O)Nc2c(C(=O)c3ccc(F)cc3)oc3ccccc23)cc1,-11.0%
O=[S+]([O-])(Nc1nccs1)c1ccc(NCc2cc(F)cc(Cl)c2O)cc1,i
O=C(Cn1c(=O)n(Cc2cccs2)c(=O)c2cccnc21)Nc1ccc(F)cc1,-16.7%
O=C(OCC#CCSc1nnc(-c2cccc3ccccc23)o1)c1ccncc1,-17.5%
Cc1ccc(NC(=O)C(C)Sc2nc(=O)cc(N)n2-c2cccc(C)c2)cc1 (centres undefined),-11.4%
CC(C)C[C@H](NC(=O)[C@H](Cc1ccccc1)C[C@@H](O)[C@H](Cc1ccccc1)NC(=O)OC(C)(C)C)C(=O)N[C@@H](Cc1ccccc1)C(N)=O,?
COc1ccc(-c2noc(CN3CCN(c4cccc(Cl)c4)CC3)n2)cc1,-10.2%
COc1ccc(NC(=O)c2ccc3nc(CCc4ccccc4)oc3c2)cc1,14.5%
Cc1ccc(C(=O)NCCn2c(C)cnc2C)s1,i
O=C(c1ccc(F)cc1)N1CCCCCC1c1nnc(-c2ccccc2)o1 (centres undefined),-1.1%
Cc1ccc(OC(=O)c2cc(-c3ccc4c(c3)OCCO4)on2)cc1C,-7.2%
Cn1cc(-c2cn(C)c(=O)n3cc(CNc4ccccc4)nc23)cn1,-16.2%[39.2 µM]
CCC(C)/C=C(C)/C=C/C1=CC2=C(Cl)C(=O)C(C)(OC(C)=O)C(=O)C2(O)C(OC)O1 (centres undefined),?
Cc1ccc(CN2CCc3nc(N4CCN(c5ncccn5)CC4)ncc3C2)cc1,?
Cc1ccccc1OCc1ccc(-c2nc(C#N)c(N3CCN(c4cccc(Cl)c4)CC3)o2)o1,-13.1%
COC(=O)C(Cc1ccc(OCCn2c(=O)sc3cc(C(=O)c4ccccc4)ccc32)cc1)C(=O)OC,-6.6%
CCS(=O)(=O)N1C[C@@H]2CN(Cc3ncc[nH]3)C[C@]2(C(=O)O)C1,-9.7%
CC[C@@H](C)[C@H]1C(=O)O[C@H](C(C)C)C(=O)N(C)[C@@H](C(C)C)C(=O)O[C@H](C(C)C)C(=O)N(C)[C@@H](C(C)C)C(=O)O[C@H](C(C)C)C(=O)N1C,-4.1%[10 µM]
O=C(NC1CCCCC1)N[C@H]1CO[C@H]2[C@@H]1OC[C@@H]2n1nnnc1Oc1ccc(-n2ccnc2)cc1,-7.6%
Cn1cnc(S(=O)(=O)N2CCCN(C(=O)c3nccn3C)CCNC(=O)CC2c2ccccc2)c1 (centres undefined),i
CC(C)NC(=O)O[C@@H]1CC[C@]2(C)C(CC[C@@H](O)[C@H]2CC(=O)NCc2ccco2)[C@]1(C)CO (some centres undefined),?
Oc1cc(Cl)ccc1Oc1ccc(Cl)cc1Cl,1.7%
O=C1c2ccccc2NC(c2ccc(-c3ccccc3F)o2)N1O (centres undefined),?
O=C1NCCOCCCN(C(=O)NCCc2ccccc2)[C@H]2CCCC[C@@H]12,3.5%
Cc1ccc(NC(=O)Cn2nc(C(=O)Nc3ccc(C)cc3)ccc2=O)cc1,-16.3%
CC1CCC2C(C)(C)C(O)CCC2(C)C12Cc1c(O)cc3c(c1O2)C(N)=NC3 (centres undefined),?
COCCN1CCCCCC(O)c2cc(C(=O)N(C)CCCc3c(C)nn(C)c3C)ccc21 (centres undefined),-10.2%
O=C([C@H](Cc1ccc(O[S+](=O)([O-])c2cccnc2)cc1)N[S+](=O)([O-])c1ccccn1)N1CCN(c2ccccc2)CC1,-3.9%
Fc1cc(Cl)cc(-c2ccc(CNc3nc(-c4ccccc4C(F)(F)F)nc4ccccc34)cc2)c1,-10.7%
CCCCC(F)(F)C1(O)CCC2C(CC(=O)C2CCCCCCC(=O)O)O1 (centres undefined),7.9%
# (list continues)
SMILES,nsP2pro inh
C=C1C(=O)O[C@H]2C[C@@H](C)[C@@H]3CCC(=O)[C@@]3(C)C[C@H]12,-23.7%
CCc1ccc(NCc2cccn2-c2nnc(N3CCCCCC3)s2)cc1,?
O=C(Nc1ccc(C(F)(F)F)cc1)c1cc(S(=O)(=O)NC2CCCCCC2)ccc1F,-10.4%
COc1cccc(CSc2nc3n(n2)C(c2cccnc2)C(C(=O)Nc2ccccc2C)=C(C)N3)c1 (centres undefined),-15.8%
c1ccc(-c2nnc([C@H]3CCN(Cc4ccco4)C3)o2)cc1,-6.4%[39.2 µM]
O=C1CCN(C(=O)c2ccsc2)CCCC(C(=O)N2CCN(c3ccccn3)CC2)CCN1 (centres undefined),0.0%
CC(C)C(=O)OC[C@H]1O[C@H](O[C@H]2O[C@H](CO)[C@@H](O)[C@H](O)[C@H]2O)[C@H](O)[C@@H](O)[C@@H]1O,-6.8%[10 µM]
Cc1ccc2c(c1)N(C(=O)N1CCC(C(=O)NCCC3=CCCCC3)CC1)CC(C)O2 (centres undefined),-13.7%
CCCNC(=O)N1CCOC[C@H](Oc2ccc(C(F)(F)F)cn2)C1,-7.1%[39.2 µM]
Cc1cccc(OCC(=O)N2CCN(Cc3ccc(=O)n(C)c3)CC2)c1,-6.3%
CS(=O)(=O)c1ccc(C(=O)OCC(=O)N2CCN(C3CCCCC3)CC2)cc1[N+](=O)[O-],?
COc1cccc(NC(=O)Cn2c(=O)n(-c3ccc(C)cc3)c(=O)c3ccccc32)c1,-11.7%

# Twelve entries from above in another layout:
SMILES	nsP2pro inh
O=C([C@H](Cc1ccc(O[S+](=O)([O-])c2cccnc2)cc1)N[S+](=O)([O-])c1ccccn1)N1CCN(c2ccccc2)CC1	-3.9%
Fc1cc(Cl)cc(-c2ccc(CNc3nc(-c4ccccc4C(F)(F)F)nc4ccccc34)cc2)c1	-10.7%
CCCCC(F)(F)C1(O)CCC2C(CC(=O)C2CCCCCCC(=O)O)O1 (centres undefined)	7.9%
C=C1C(=O)O[C@H]2C[C@@H](C)[C@@H]3CCC(=O)[C@@]3(C)C[C@H]12	-23.7%
CCc1ccc(NCc2cccn2-c2nnc(N3CCCCCC3)s2)cc1	?
O=C(Nc1ccc(C(F)(F)F)cc1)c1cc(S(=O)(=O)NC2CCCCCC2)ccc1F	-10.4%
COc1cccc(CSc2nc3n(n2)C(c2cccnc2)C(C(=O)Nc2ccccc2C)=C(C)N3)c1 (centres undefined)	-15.8%
c1ccc(-c2nnc([C@H]3CCN(Cc4ccco4)C3)o2)cc1	-6.4%[39.2 µM]
O=C1CCN(C(=O)c2ccsc2)CCCC(C(=O)N2CCN(c3ccccn3)CC2)CCN1 (centres undefined)	0.0%
CC(C)C(=O)OC[C@H]1O[C@H](O[C@H]2O[C@H](CO)[C@@H](O)[C@H](O)[C@H]2O)[C@H](O)[C@@H](O)[C@@H]1O	-6.8%[10 µM]
Cc1ccc2c(c1)N(C(=O)N1CCC(C(=O)NCCC3=CCCCC3)CC1)CC(C)O2 (centres undefined)	-13.7%
CCCNC(=O)N1CCOC[C@H](Oc2ccc(C(F)(F)F)cn2)C1	-7.1%[39.2 µM]

# Later entries:
SMILES,nsP2pro inh
CCN(CC)C(=O)[C@@H]1CCC[C@@H](NC(=O)c2cccnc2)CN(C)C(=O)C1,-8.5%[39.2 µM]
C=C1C[C@H]2[C@@H]3C=C(C)C4=CC(=O)CC[C@]4(C)[C@H]3CC[C@]2(C)[C@@]1(OC(C)=O)C(C)=O,-5.1%
CC(C)N1C(=O)C2(CCCC2)C1C(=O)NCCCN1CCc2ccccc2C1 (centres undefined),-17.7%
Cc1sc2c(c1C)C(c1ccc(Cl)cc1)=N[C@H](CC(=O)NCCCCNC(=O)COc1cccc3c1C(=O)N([C@H]1CCC(=O)NC1=O)C3=O)c1nnc(C)n1-2,28.6%
CCC(C(=O)Nc1nnc2n1CCS2)c1ccccc1 (centres undefined),-11.1%
O=C(c1cccnc1OC1CCN(Cc2ccccn2)C1)N1CCCCC1 (centres undefined),3.6%
Cn1c(=O)[nH]c(=O)c2c1nc(NCCc1ccccc1)n2Cc1ccc(F)cc1,-19.4%
CCn1ncc(N2CCC(NC(=O)c3ccccc3)CC2)cc1=O,i
Cc1cn2nnc(C(=O)N3CCC(C(=O)Nc4cccc(F)c4)CC3)c2c(=O)[nH]1,1.4%
O=C1CCCC2=C1C(c1[nH]ncc1Cl)N=C(Nc1ccccn1)N2 (centres undefined),-5.5%
Cc1ccc(S(=O)(=O)C(CNC(=O)c2c(F)cccc2F)c2ccco2)cc1 (centres undefined),-24.4%
C[N+]1([O-])[C@H]2CC(OC(=O)C(CO)c3ccccc3)C[C@H]1[C@H]1O[C@H]12 (some centres undefined),26.6%
CC(=O)Nc1sc2c(c1-c1ccc3c(c1)OCCO3)CCNC2,0.1%
C=C1/C(=C/C=C2\CCC[C@]3(C)[C@@H]([C@H](C)CC[C@@H](O)C(C)C)CC[C@@H]23)C[C@@H](O)C[C@@H]1O,-16.2%
CC1=CCC2C(C)(CO)CCCC2(C)C1CC12OC1C(O)C(CO)=CC2O (centres undefined),-1.7%
COc1cccc(-n2c(SCC(N)=O)nc3c(oc4ccccc43)c2=O)c1,-8.2%
COc1ccc(CCN2CC(NC(=O)Cn3ccc(C)n3)CC2=O)cc1 (centres undefined),i
Cc1ccc(-n2ncc3c(NCCCn4ccnc4)ncnc32)cc1,50.1%[activator]
COc1ccc2nc3ccc(OC)cc3c(SCCCN)c2c1,-18.0%
CCCCS(=O)(=O)Nc1ncnc(OCCOc2ncc(Br)cn2)c1-c1ccc(Br)cc1,0.9%
O=C1N(Cc2ccccc2F)CCOC12CCN([S+](=O)([O-])c1cccnc1)CC2,-1.0%[39.2 µM]
CC(C)(Oc1nn(CCOc2ccccc2)c2ccccc12)C(=O)NCc1ccncc1,i
Cc1cccc([S+](=O)([O-])NC2CCN(C#N)CC2)c1,-9.2%
Clc1ccc(OCC2=NCCN2)cc1Cl,2.5%
CNCc1cn(C2CCN(Cc3c(OC)ccc(F)c3F)CC2)nn1,-12.3%
CN(C(=O)CSc1nc2ccc(NC(=O)c3cccs3)cc2s1)c1ccccc1,-20.1%
COCCCn1c(=O)c2sccc2n2c(CCCC(=O)NC3CCC(C)CC3)nnc12 (centres undefined),-29.1%
Clc1ccc(CO/N=C(\Cn2ccnc2)c2ccc(Cl)cc2Cl)c(Cl)c1,84.1%[activator]
CCc1nc2cc(N3CCCC(C(=O)NC(C)C)C3)cnc2nc1CC (centres undefined),3.9%
COc1cccc(CN2CCc3nn(Cc4ccccc4)c(=O)n3CC2)n1,3.2%
Cc1ccc(OCCn2c(CCNC(=O)CCc3ccccc3Br)nc3ccccc32)cc1,-7.8%

# High-throughput results from PubChem.

# Some of the compounds tested (hit frequency here may not be typical).
